Arbovirus inh: blocks arbovirus infection; hit rate 0.37% among 200,000; arbovirus infection cell-based antiviral screen; inhibition, % at 10 µM;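 active = inhibition from about 30%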;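 also: bluetongue infection of BSR cells; cell survival read as ATP light after 72 h; 0% = infected wells without compound and 100% = uninfected wells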
Mtb betalactam: beta-lactam sensitization of Mtb H37Rv. M. tuberculosis H37Rv growth with meropenem, percent inhibition; hits of this screen are not shown here. inhibition, % at 25 µM. hit rate 0.27% among 330,000;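 active = about 74% or more and at least 40 points above the plate without the antibiotic, then above 30% in a dose series; inconclusive = first-round hits that could not be retested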;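 also: growth measured after seven days incubation then overnight dye step; 0% = bacteria only wells and 100% = bacteria with antibiotic; twin plates without the antibiotic show which effects depend on it; some results filed as inactive read as strong as hits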
Mtb H37Rv: M. tuberculosis H37Rv growth inhibitors, H37Rv strain (AID 1626) | inhibition, % at 10 µM, or IC50 in µM where a hit was titrated | hit rate 0.95% among 220,000 | M. tuberculosis H37Rv growth inhibition; higher % means a stronger effect;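 active = confirmed in a dose series; inconclusive = inhibition above 80% but not taken into the dose series; inactive = below 80% or under 30% at every dose of the series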;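 also: bacteria incubated seven days before Alamar blue readout; 0% = bacteria only wells and 100% = bacteria with antibiotic wells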
RecA intein inh: blocks M. tuberculosis RecA intein splicing | P9WHJ3 | cell-free RecA intein splicing, fluorescence | inhibition, %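 (about 9 µM by stock and volumes)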 | hit rate 0.75% among 290,000 | AID 2221; in the data active = inhibition above about 30%; inconclusive = no clear call, values can overlap the other calls;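 also: 0% = vehicle wells and 100% = reference inhibitor control wells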
Target sequence (P9WHJ3 whole entry, looked up): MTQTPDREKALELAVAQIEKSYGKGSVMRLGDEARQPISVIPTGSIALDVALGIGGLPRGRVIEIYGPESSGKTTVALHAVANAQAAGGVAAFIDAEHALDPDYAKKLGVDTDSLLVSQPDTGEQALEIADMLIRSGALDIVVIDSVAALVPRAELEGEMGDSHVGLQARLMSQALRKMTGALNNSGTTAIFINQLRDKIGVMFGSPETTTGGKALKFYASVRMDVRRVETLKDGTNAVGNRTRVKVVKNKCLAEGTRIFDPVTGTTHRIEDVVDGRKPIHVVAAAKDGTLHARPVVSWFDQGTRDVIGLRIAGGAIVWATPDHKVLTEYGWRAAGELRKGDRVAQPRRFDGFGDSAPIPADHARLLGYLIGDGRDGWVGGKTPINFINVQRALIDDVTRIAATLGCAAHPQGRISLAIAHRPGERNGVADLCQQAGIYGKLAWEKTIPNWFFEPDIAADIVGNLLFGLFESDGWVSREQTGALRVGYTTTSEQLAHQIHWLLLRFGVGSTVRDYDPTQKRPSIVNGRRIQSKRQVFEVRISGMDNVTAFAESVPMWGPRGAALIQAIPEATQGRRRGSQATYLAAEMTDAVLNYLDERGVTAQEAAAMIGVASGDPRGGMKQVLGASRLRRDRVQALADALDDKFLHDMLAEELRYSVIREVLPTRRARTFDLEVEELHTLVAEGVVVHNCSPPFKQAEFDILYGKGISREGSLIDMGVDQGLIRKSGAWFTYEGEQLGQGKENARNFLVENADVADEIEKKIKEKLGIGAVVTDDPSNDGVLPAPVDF
YopH PTP inh: blocks Yersinia enterocolitica YopH tyrosine phosphatase | fluorescence Ex485/Em525 | inhibition, %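 (about 10 µM by stock and volumes)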 | hit rate 0.16% among 140,000;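 active = inhibition of 50% or more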;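 also: controls were vehicle for no effect and minimum signal wells for full effect; inactives centre near -20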
Arbovirus inh repeat: also measured in Arbovirus inh; calls as there; inhibition, %; measured here: 10K subset replicate screen; many hits read low in the repeat;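 first of two repeat runs on a subset; 0% = infected and 100% = uninfected wells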
* = called active by the depositor; ? = inconclusive; · = not tested or not shown.

SMILES | Arbovirus inh | Mtb betalactam | Mtb H37Rv | RecA intein inh | YopH PTP inh | others
COc1ccc(NS(=O)(=O)c2cc(NC(=O)c3ccc(C)s3)ccc2N2CCOCC2)cc1 | · | 85.8 | 71.9% | 9.4 | ·
CCS(=O)(=O)Nc1cc(OC)c(OC)cc1Cc1nccc2cc(OC)c(OC)cc12 | · | 0.5 | 0.7% | 0.8 | ·
O=C(COc1ccc(S(=O)(=O)N2CCCCC2)cc1)N1CCCCCC1 | 3.7 | -6.9 | -2.0% | 1.8 | -27.2
Cc1ccc(-c2nnn(CC(=O)NCCc3ccc4c(c3)OCO4)n2)o1 | -5.2 | -13.0 | 3.9% | 0.2 | -6.6
COC(=O)C1SCC2C(=O)N(Cc3ccc(Cl)cc3)CC(=O)N21 (stereo not given) | 7.8 | -1.1 | 9.0% | -2.1 | ·
CCOC(=O)c1c(C)n(COCCO)c2ccc(O)cc12 | 4.7 | 2.1 | -12.2% | -1.9 | -8.8
CC(=O)Nc1cccc(-c2csc(Nc3ccc(C)cn3)n2)c1 | 19.0 | 2.9 | 6.4% | 10.5 | 1.3
CCS(=O)(=O)N1Cc2ccccc2CC1C(=O)Nc1nc2ccc(F)cc2s1 (stereo not given) | 3.5 | ? | 65.2% | 3.5 | -23.4
NC1=NC(=O)/C(=C/c2cn(CCC(=O)O)nc2-c2ccc(F)cc2)S1 | -3.9 | 0.4 | -7.8% | -2.3 | -37.1
CC1=[N+]([O-])C(C)(C)C(c2ccc(Br)cc2)=[N+]1[O-] | 11.4 | 2.7 | 1.4% | -4.2 | -6.5
COc1ccc(S(=O)(=O)N2CCCCC2)cc1NC(=O)CN(C)C1CCCCC1 | 14.6 | 1.2 | 9.8% | -0.3 | ·
Cc1cc(C(=O)CSc2ncccn2)c(C)n1-c1cccc(F)c1 | -4.8 | -2.9 | 6.9% | 2.0 | -17.8
CC(C)Cc1csc(NC(=O)c2ccccc2Cl)c1C(=O)O | 66.1* | 7.3 | 2.2% | -41.4 | -24.9
O=C(Nc1ccc2c(c1)OCCO2)C(=O)c1c[nH]c2ccccc12 | · | -7.8 | · | 1.7 | ·
CCCCc1nc(N)c(C#N)c(-c2ccco2)c1CCC | -15.5 | 3.1 | -4.5% | 1.2 | -18.7
Cc1cccc(C2=NCC(=O)N(CC(=O)NCc3ccco3)c3sc4c(c32)CCCC4)c1 | -15.8 | 4.7 | 4.2% | -0.7 | -23.3
Cc1cc(S(=O)(=O)Nc2c(C)nc3nc[nH]n3c2=O)ccc1F | 0.0 | 0.8 | 3.0% | 0.2 | ·
CCOC(=O)c1c(NC(=O)/C=C\C(=O)O)sc(C)c1-c1ccccc1 | 10.1 | -6.7 | 0.2% | 56.3* | ·
COc1ccc(N(CC(=O)Nc2cccc([N+](=O)[O-])c2C)S(C)(=O)=O)cc1OC | 0.7 | 2.8 | 0.9% | -2.3 | -5.9
CCCC(C)C(=O)Nc1ccc(S(N)(=O)=O)cc1 (stereo not given) | 2.2 | -1.2 | 2.0% | 1.4 | ·
CCCC/C(=N\O)c1c[nH]c2ccccc12 | 12.0 | 4.4 | 2.1% | 4.9 | -10.4
CC1=C([N+](=O)[O-])C(c2ccccc2)NC(=O)N1 (stereo not given) | · | -13.2 | · | -1.1 | ·
COc1cccc(Nc2nnc(SCN3C(=O)c4ccccc4C3=O)s2)c1 | 5.5 | 2.2 | 2.2% | -3.1 | -7.4
O=C(O)[C@@H]1CCCN1C(=O)c1ccco1 | 8.4 | -2.6 | -1.1% | -3.1 | 4.9
CCCCCn1c(=O)c(C(=O)NCCc2ccccc2)c(O)c2ccccc21 | · | 7.1 | · | -3.5 | ·

Next section, overlapping the part above by four compounds.
SMILES | Arbovirus inh | Mtb betalactam | Mtb H37Rv | RecA intein inh | YopH PTP inh | others
CC1=C([N+](=O)[O-])C(c2ccccc2)NC(=O)N1 (stereo not given) | · | -13.2 | · | -1.1 | ·
COc1cccc(Nc2nnc(SCN3C(=O)c4ccccc4C3=O)s2)c1 | 5.5 | 2.2 | 2.2% | -3.1 | -7.4
O=C(O)[C@@H]1CCCN1C(=O)c1ccco1 | 8.4 | -2.6 | -1.1% | -3.1 | 4.9
CCCCCn1c(=O)c(C(=O)NCCc2ccccc2)c(O)c2ccccc21 | · | 7.1 | · | -3.5 | ·
CCCCSc1nnc(NC(=O)CCc2ccccc2)s1 | 9.5 | -5.7 | 13.5% | 1.6 | -8.8
CCOC(=O)C(NC(=O)c1ccc(OC)cc1)(Nc1cc(C)on1)C(F)(F)F (stereo not given) | 1.4 | -3.2 | -1.5% | 2.0 | -44.6
COc1ccccc1CN(C)C(=O)c1cc(C)nc2ccccc12 | · | -5.5 | · | 1.7 | ·
CCCCNc1cc(=O)n(C)c(=O)[nH]1 | -2.0 | -2.2 | -2.2% | 2.1 | 3.0 | Arbovirus inh repeat=1.2
CCN1CCN(c2nc(Nc3ccc(OC)cc3)nc(N)c2[N+](=O)[O-])CC1 | · | -2.2 | -3.7% | 4.2 | ·
O=C(CCSc1ccc(Br)cc1)c1ccc(O)cc1 | · | 3.3 | · | 10.1 | ·
O=S(=O)(Nc1ccc(-c2nc3cccnc3s2)cc1)c1cccs1 | -0.8 | 3.1 | 36.8% | -14.4 | -40.3 | Arbovirus inh repeat=-9.5
CCCc1nc2ccccc2c(=O)n1-c1ccc(C(=O)OCC)cc1 | 3.4 | 2.1 | 4.2% | -1.3 | ·
CCC(=O)NNc1cccc(Cl)n1 | -0.1 | 1.8 | · | -4.9 | -18.1
O=c1c2ccccc2nc(-c2ccc(F)cc2)n1NCc1ccccc1O | 17.2 | 6.8 | -4.7% | 0.3 | ·
CC1CCCCC1NC(=O)COC(=O)c1ccc2ccccc2n1 (stereo not given) | 3.3 | -4.9 | -4.6% | -0.1 | ·
Cc1cccn2c(N)c(-c3ccccc3)nc12 | -2.4 | -2.1 | 1.9% | -0.4 | -39.5
O=C(COc1cc(Cl)c(Cl)cc1Cl)NC(=O)Nc1ccc2c(c1)OCCO2 | -3.0 | -4.0 | -0.8% | -1.3 | -15.9
CN(c1ccccc1)S(=O)(=O)c1cccc(C(=O)Nc2nn[nH]n2)c1 | · | 0.7 | -11.2% | · | ·
COc1ccc(OC)c(C(=O)c2coc3cc(Br)c(O)c(Br)c23)c1 | · | 4.2 | · | 6.8 | ·
COc1ccc(C2=NS(=O)(=O)N(C)C(C(=O)Nc3ccc(F)cc3F)=C2)cc1 | · | 1.3 | · | -6.6 | ·
CCOC(=O)C1C(=O)C=C(c2ccc(C)cc2)CC1c1cccc([N+](=O)[O-])c1 (stereo not given) | -4.4 | -6.0 | 9.1% | 6.6 | -31.5
NS(=O)(=O)c1ccc(-c2ccc(C=C3C(=O)NC(=O)NC3=O)o2)cc1 | · | -1.4 | · | -1.3 | ·
O=C(C(=O)N1CC=C(c2ccccc2)CC1)c1c[nH]c2ccccc12 | -12.1 | 9.0 | 0.4% | 0.4 | -14.7
Cc1ccc2nc(-c3ccc(NC(=O)CCN4C(=O)c5ccccc5C4=O)cc3)sc2c1 | -14.7 | 8.3 | 4.4% | -3.2 | -25.6
CCOC(=O)C1=C(c2ccccc2)NC(=S)NC1c1ccc(Cl)c([N+](=O)[O-])c1 (stereo not given) | 8.8 | 9.1 | 6.0% | 7.7 | -21.5
O=C(NCCOc1ccccc1Cl)c1cc(F)c(F)cc1Cl | -3.9 | · | 8.3% | 1.2 | -4.2
O=C(CNC(=O)c1ccc(Br)o1)NCc1ccc2c(c1)OCO2 | -5.3 | 2.5 | -0.7% | 0.4 | -34.4
Cc1nc2ccc(Cl)cc2c(=O)n1-c1ccc([N+](=O)[O-])cc1 | · | 3.2 | · | 0.1 | ·
COc1ccccc1NC(=O)Nc1ccnn1C1CCCCC1 | 7.0 | -4.2 | -0.2% | -2.1 | -9.5 | Arbovirus inh repeat=-1.2

Reprinted at random: 3 compounds from above.
SMILES | Arbovirus inh | Mtb betalactam | Mtb H37Rv | RecA intein inh | YopH PTP inh | others
COc1ccc(NS(=O)(=O)c2cc(NC(=O)c3ccc(C)s3)ccc2N2CCOCC2)cc1 | · | 85.8 | 71.9% | 9.4 | ·
Cc1cccc(C2=NCC(=O)N(CC(=O)NCc3ccco3)c3sc4c(c32)CCCC4)c1 | -15.8 | 4.7 | 4.2% | -0.7 | -23.3
CCOC(=O)C1C(=O)C=C(c2ccc(C)cc2)CC1c1cccc([N+](=O)[O-])c1 (stereo not given) | -4.4 | -6.0 | 9.1% | 6.6 | -31.5

The list continues:
SMILES | Arbovirus inh | Mtb betalactam | Mtb H37Rv | RecA intein inh | YopH PTP inh | others
CC(=O)c1c(C)nc2ccccn12 | 3.4 | 6.3 | · | 1.8 | -44.2
COc1ccc(/C=C/c2nc3cc(-c4ccccc4)ccc3o2)cc1O | -42.4 | 72.4 | 15.5% | 3.6 | -17.5
Cc1ccc2cc(CN(CC3CCCO3)S(=O)(=O)c3c(C)ccc4nsnc34)c(=O)[nH]c2c1 (stereo not given) | 3.7 | 3.2 | 2.1% | 1.4 | -43.0
CCCn1c(=O)[nH]c(=O)c2c1nc(-c1ccc(OC(F)(F)C(F)C(F)(F)F)cc1)n2CCOC (stereo not given) | 6.5 | 17.2 | 12.9% | -2.0 | -7.3
COc1ccc(Br)cc1S(=O)(=O)N1CC(C)OC(C)C1 (stereo not given) | -3.1 | 0.4 | -5.9% | 2.0 | -2.5
Cc1csc(NC(=O)c2cc(-c3ccncc3)nc3ccccc23)n1 | 4.6 | 4.0 | 2.7% | 6.9 | ·
O=C(NCc1cccnc1)C1CCC(CNS(=O)(=O)c2ccc(Cl)cc2)CC1 (stereo not given) | -5.2 | -12.6 | -2.1% | -3.8 | ·
Cc1c(C(=O)O)[nH]c2c1C(=O)CC(c1ccc(Cl)cc1)C2 (stereo not given) | 10.2 | 13.2 | -14.7% | -0.2 | -6.6
CN(CC(=O)Nc1ccc(F)c(Cl)c1)S(=O)(=O)c1cccc2nsnc12 | 4.9 | -7.0 | -7.8% | 2.1 | -29.7
CC(C)CNC(=O)c1cccc(NC(=O)CCc2ccccc2)c1 | -3.4 | 3.4 | -4.2% | -0.1 | ·
CCn1c(O)c(N=NC(=O)Cc2csc(N3CCOCC3)n2)c2ccccc21 | 4.1 | -5.5 | 0.5% | 2.4 | ·
Cc1ccccc1OCCC(=O)Nc1ccc(F)c(Cl)c1 | 2.0 | 0.9 | -0.6% | 2.3 | -11.8
O=S(=O)(Nc1nccs1)c1ccc2c(c1)OCCO2 | 6.6 | -9.3 | -4.8% | 2.7 | -48.0
CCN(Cc1ccccc1)S(=O)(=O)c1ccc(C(=O)N(CCCN(C)C)c2nc3cc4c(cc3s2)OCO4)cc1 | · | 84.6 | · | 7.0 | ·
Cc1coc2cc3oc(=O)cc(C)c3cc12 | -7.2 | 4.5 | 4.2% | -1.7 | -24.8
CC1CCC(N2CCN(S(C)(=O)=O)CC2)CC1 (stereo not given) | 1.0 | 7.5 | -15.8% | 1.0 | -23.4
COc1ccc(-c2nnn(CCc3nn[nH]n3)n2)cc1 | · | -0.8 | -24.1% | 0.8 | -3.1
COc1ccccc1Nc1ncnc2nc[nH]c12 | 9.0 | -3.5 | -9.2% | -0.3 | -2.8
Cc1ccc(CN2C(=O)CN=C(c3ccccc3)c3ccccc32)cc1 | -17.2 | -4.8 | 0.2% | 11.9 | -20.6
COC(=O)C1CCN(Cc2cn(-c3ccccc3)nc2-c2ccc3c(c2)OCO3)CC1 | 4.3 | -3.2 | -1.1% | 2.7 | ·
CCC(CC)COC(=O)C1=C(C)NC(=O)NC1c1ccc2c(c1)OCO2 (stereo not given) | · | 6.8 | · | 1.7 | ·
Cc1ccc2[nH]c3c(c2c1)CCCC3C(N)=O (stereo not given) | -8.0 | 3.0 | -5.0% | -7.2 | -25.2
COC(=O)c1ccc(COc2ccc(C(C)(C)C)cc2)o1 | · | -1.1 | · | 12.0 | ·
CCCCC(=O)Nc1cccc(NC(=O)c2cccnc2Cl)c1 | · | -5.5 | 8.7% | -0.5 | ·
O=C(CSc1nnc(-c2cccc(F)c2)o1)N1CCCC1 | · | 8.5 | · | -1.6 | ·
COc1ccc(-c2noc(CCC(=O)NCCCN3CCC(C)CC3)n2)cc1 | 0.9 | 0.9 | 3.9% | -0.1 | -11.9
COCCCN1C(=O)C(=O)/C(=C(/O)c2ccc(OCC(C)C)cc2C)C1c1cccnc1 (stereo not given) | -3.5 | 2.5 | -8.3% | -1.7 | -92.4 | Arbovirus inh repeat=9.9
CC(C)(C)C1(O)CC(C(F)(F)F)=NN1C(=O)Cc1ccc([N+](=O)[O-])cc1 (stereo not given) | 15.0 | -5.7 | -1.6% | 1.5 | ·
Cc1onc(-c2ccccc2)c1C(=O)NCC1CCCO1 (stereo not given) | 6.1 | -11.3 | 2.5% | 2.3 | -7.5
CCO[C@H]1OC(C(=O)N2CCOCC2)=C[C@@H](C2CC2)[C@@H]1CCCO | 1.4 | -9.2 | 0.0% | -1.4 | ·

An excerpt; rates above refer to the full screens.
